HNF4A DNA FP: change in binding of human HNF4 alpha to DNA | HNF4a-FITC DNA binding, fluorescence polarization, 1 h | AID 1224865 | activity change, % at 10 µM | 360,000 compounds, 0.3% hits | P41235; in the data active means activity change above about 30%, passing the limit was not always enough;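 further: controls were the assay level and a saturating level of protein; the project sought stronger binding though the title names inhibitors; some compounds called inactive have numbers as strong as hits; positive values seem to mean higher polarization but the record does not say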
Target sequence (P41235 whole entry, looked up): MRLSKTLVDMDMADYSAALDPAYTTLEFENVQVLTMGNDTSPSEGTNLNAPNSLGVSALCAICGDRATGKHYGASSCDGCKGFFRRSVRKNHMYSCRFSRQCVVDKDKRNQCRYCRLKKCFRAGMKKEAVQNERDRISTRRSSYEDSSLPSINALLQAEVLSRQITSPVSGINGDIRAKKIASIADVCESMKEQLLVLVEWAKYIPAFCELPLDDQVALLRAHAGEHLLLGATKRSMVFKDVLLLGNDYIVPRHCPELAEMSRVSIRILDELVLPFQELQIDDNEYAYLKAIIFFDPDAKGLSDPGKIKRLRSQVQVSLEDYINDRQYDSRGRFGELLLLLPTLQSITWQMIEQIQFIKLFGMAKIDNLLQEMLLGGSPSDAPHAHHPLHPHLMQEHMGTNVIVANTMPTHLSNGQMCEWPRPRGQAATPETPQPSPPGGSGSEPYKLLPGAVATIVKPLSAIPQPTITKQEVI
Numbers without * were called inactive.

HNF4A DNA FP,mol
-5.6,O=C(CC1C(=O)NCCN1Cc1ccccc1)NC1CCCCC1 (stereo unspecified)
-0.8,COc1ccc(C=O)c(-c2c(-c3ccccc3OC)sc3ccccc23)c1
-3.1,COC(=O)[C@]12CCCCC=C1N(Cc1ccccc1)C(=O)[C@H](CC(=O)NCc1cccc(C(F)(F)F)c1)C2
-0.3,CC1C(=O)N(Cc2cn(CC3CCCCC3)nn2)CCS(=O)(=O)N1Cc1ccc(-c2ccc(Cl)c(Cl)c2)cc1 (stereo unspecified)
0.4,CC(=O)Nc1cccc(-c2ccnc3c2CC(C)(C(=O)Nc2cccc(NS(C)(=O)=O)c2)O3)c1 (stereo unspecified)
-0.2,O=C(C(=O)N1CCCN(Cc2ccc(F)cc2)CC1)c1ccccc1
2.8,CC(=O)c1ccc(Nc2nc(C(N)CC(C)C)cs2)cc1 (stereo unspecified)
-3.1,C[C@@H]1CN([C@H](C)CO)C(=O)CCCn2nncc2CO[C@@H]1CN(C)S(=O)(=O)c1cccc(F)c1
-1.8,COc1cccc(C(O)c2ncc(-c3cccc(F)c3)[nH]2)c1 (stereo unspecified)
-1.7,CC1=C(C(=O)N(C(C)C)C(C)C)CC(CC(=O)NCc2cccs2)C(=O)N1CCCN1CCCC1=O (stereo unspecified)
1.8,CC(=O)c1ccc(-c2cnc3c(NC=O)cc(-c4ccc(S(C)(=O)=O)cc4)cn23)cc1
-0.3,COc1cccc(C(O)c2ncc(-c3ccccc3)[nH]2)c1 (stereo unspecified)
3.4,CCc1nc2c(OCC3CCCCC3)cccn2c1N(C=O)Cc1ccc(OC)cc1
-2.8,CC(C)(C(=O)N1CCC1(C)C(=O)NS(=O)(=O)c1ccc(C#N)cc1)c1ccccc1 (stereo unspecified)
-4.3,CCCCC[C@@H](C)N1C[C@H](COCc2ccccc2)Oc2cc(N3CCC[C@@H]3CO)ccc2S1(=O)=O
0.3,O=C(Nc1cc(Cl)cc(Cl)c1)N[C@@H]1CC[C@@H](CCNS(=O)(=O)c2cccc(F)c2)O[C@@H]1CO
0.1,CCCCNC(=O)c1cnc(Cc2c[nH]c3ccccc23)c(I)c1
-2.5,C[C@H](CO)N1C[C@H](C)[C@H](CN(C)S(=O)(=O)c2ccc(Cl)cc2)OCc2cnnn2CCCC1=O
-13,CCCc1nc2ccc(Cl)cn2c1Cc1ccsc1
1.5,C[C@@]12CC[C@@H](C3=C(CCC3)C1)N2c1ccccc1

The last 2 compounds of the part above are carried over, then new ones follow:
HNF4A DNA FP,mol
-13,CCCc1nc2ccc(Cl)cn2c1Cc1ccsc1
1.5,C[C@@]12CC[C@@H](C3=C(CCC3)C1)N2c1ccccc1
1.1,CCOC(=O)C1(C)CCN1C(=O)c1ccc(SC(F)(F)F)cc1 (stereo unspecified)
1.4,COc1ccc(Cl)cc1-c1cc(C(=O)NCc2cc(C(F)(F)F)cc(C(F)(F)F)c2)[nH]n1
2.5,CCCCN(C(C)=O)c1c(CC)nc2ccc(C(=O)NCCc3ccccn3)cn12
-1.9,CC1(C(=O)Nc2cccc(C#N)c2)CCN1C(=O)c1ccccc1CCc1ccccc1 (stereo unspecified)
-1.5,CC(=O)c1sc(Nc2ccc3c(c2)OCO3)nc1C
-2.9,CC1CCCN(C(=O)c2ccc3c(=O)n4nc(Nc5ccccc5)sc4nc3c2)C1 (stereo unspecified)
-0.1,CC1(C(=O)Nc2cnc3ccccc3c2)CCN1C(=O)C/C=C/c1ccccc1 (stereo unspecified)
-0.7,COc1cc(NC(=O)C2(C)CCCN2C(=O)C(C)C)cc(OC)c1OC (stereo unspecified)
-2.6,Cc1cccc(C2CC(c3ccccc3)=NN2c2ccc(S(N)(=O)=O)cc2)c1 (stereo unspecified)
-1.9,Cn1nc(C(C)(C)C)cc1C(=O)N1CCCCC1c1cc(C(=O)N2CCOCC2)no1 (stereo unspecified)
-0.6,Cc1cccc(-c2cnc(C(O)c3ccc4ccccc4c3)[nH]2)c1 (stereo unspecified)
4.3,COc1cccc(-c2oc3c(c2-c2ccc(OC)nc2)C(O)CCC3)c1 (stereo unspecified)
7.0,O=C1NC[C@@H](CCCCN2C[C@H](Cc3ccccc3)N(Cc3ccccc3)C(=O)C2=O)N(CCc2ccccc2)C1=O
3.0,Cc1noc(C)c1S(=O)(=O)NC(=O)C1(C)CCN1C(=O)c1ccccc1CCc1ccccc1 (stereo unspecified)
1.6,COC(=O)[C@]12CCCCC=C1N(Cc1ccco1)C(=O)[C@H](CC(=O)N1CCN(C(=O)C3CC3)CC1)C2
-1.0,O=C1NC[C@@H](CCCCN2CCN(Cc3ccccc3)C(=O)C2=O)N(CCC2CCCCC2)C1=O
-3.8,COc1ccc(Cc2c(C3CCCCC3)nc3c(C)cc(Br)cn23)c(C)c1
-2.5,CCOC(=O)C1=CCN(S(=O)(=O)c2ccc(C)cc2)[C@H]1c1ccccc1Cl
0.0,CNc1ncnc2c1ncn2[C@H]1CN(CCc2ccccc2)C[C@@H](CO)O1
-1.7,Cc1ccnc(Nc2ccc(CCO)cc2)n1

Reprinted from the part before: three entries; new compounds follow.
HNF4A DNA FP,mol
-2.5,CCOC(=O)C1=CCN(S(=O)(=O)c2ccc(C)cc2)[C@H]1c1ccccc1Cl
0.0,CNc1ncnc2c1ncn2[C@H]1CN(CCc2ccccc2)C[C@@H](CO)O1
-1.7,Cc1ccnc(Nc2ccc(CCO)cc2)n1
1.1,Cc1cc(Br)ccc1NC(=O)CCCOc1cc(=O)n(C)c2ccccc12
1.0,O=C(NCC(F)(F)F)[C@H]1O[C@@H](n2ccc(=O)[nH]c2=O)[C@H](O)[C@@H]1O
6.3,Cc1cc2nc(-c3ccc(C#N)cc3)c(Cc3cccc(F)c3)n2c(C)c1Br
-0.1,COc1ccc([C@@H]2C[C@H]3[C@@H](CN2S(=O)(=O)c2ccccc2)C(=O)C[C@@H](c2ccc(OC)cc2)N3S(=O)(=O)c2ccccc2)cc1
1.7,C[C@H]1CN([C@@H](C)CO)C(=O)CCCn2nncc2CO[C@H]1CN(C)C(=O)Nc1cccc2ccccc12
-1.9,CCCS(=O)(=O)NC(=O)C1(C)CCCN(C(=O)c2cc3ccccc3s2)C1 (stereo unspecified)
-2.4,CCn1cc(/C=C(\NC(=O)c2cc(OC)c(OC)c(OC)c2)C(=O)N2CCOCC2)c2ccccc21
-3.1,CN(Cc1ccccc1)Cc1cc(=O)oc2ccccc12
8.3,O=C(c1cc(C2CC2)nn1-c1ccccc1)N1CCN(Cc2ccccc2)CC1
1.4,O=C(Nc1ccccc1)c1cc(C2CCCN(C(=O)c3cccs3)C2)on1 (stereo unspecified)
1.4,CCOC(=O)[C@]12CCC=C1N(CCC1=CCCCC1)C(=O)[C@H](CC(=O)N1CCN(C(=O)c3ccco3)CC1)C2
-2.1,O=C1NC[C@H](CCCCN2C[C@H](Cc3ccccc3)N(CCc3ccc(O)cc3)C(=O)C2=O)N(CC2CCCCC2)C1=O
0.3,CCc1nc2ccc(C(=O)Nc3ccc(OC)c(OC)c3)cn2c1N(CC)CCOC
0.3,NC(c1csc(Nc2nccc(C(F)(F)F)n2)n1)C1CCCCC1 (stereo unspecified)
0.9,C[C@@H]1CN([C@H](C)CO)C(=O)CCCn2nncc2CO[C@H]1CN(C)Cc1ccc(O)cc1
-1.1,Cc1ccc2nc(CN(C)C(=O)[C@H]3O[C@@H](n4ccc(N)nc4=O)[C@H](O)[C@@H]3O)[nH]c2c1
-2.0,Cn1ccc2c(/C=C/c3ccc(F)cc3)cc3c(c21)C1CCC3O1 (stereo unspecified)
0.4,O=C(C[C@H]1CC[C@@H](NC(=O)Cc2cccnc2)[C@@H](CO)O1)NCc1ccc2c(c1)OCO2
2.8,OC(c1ccccc1)c1ncc(-c2ccccc2F)[nH]1 (stereo unspecified)
2.7,CC1(C(=O)NS(=O)(=O)c2ccc(C#N)cc2)CCN1C(=O)c1cccc2ccccc12 (stereo unspecified)
2.5,O=C(NCCN1CCC(n2c(=O)[nH]c3ccccc32)CC1)c1cc(F)cc(F)c1
1.8,Cc1nc2ccc(C(=O)NCCCN3CCCC3=O)cn2c1N(C)C(=O)CCc1ccccc1
2.4,Clc1ccccc1-c1cccc2nccn12
1.1,CCOC(=O)C1=CCN(S(=O)(=O)c2cccc(Cl)c2)C1c1ccc(F)cc1 (stereo unspecified)
-5.5,COc1ccc(C(O)C2c3c(cc4c(c3OC)OCO4)CCN2C)c(CO)c1OC (stereo unspecified)
-0.8,CCOC(=O)C1=C[C@@H](C(C)C)N(S(=O)(=O)c2ccc([N+](=O)[O-])cc2)[C@H]1c1ccccc1
-2.4,CC1(C(=O)Nc2ccc3c(c2)OCCO3)CCN1C(=O)Cc1cc(F)ccc1F (stereo unspecified)
0.5,O=C1c2ccccc2C(c2nnnn2-c2ccc3c(c2)OCCO3)N1CCc1ccc(O)cc1 (stereo unspecified)
-2.7,COc1ccc(OC)c(CN2C(=O)CSCC2(C)C(=O)NCc2ccccc2)c1 (stereo unspecified)
-0.1,Cc1nc2ccc(C(=O)N3CCC(O)(Cc4ccccc4)CC3)cn2c1N(C)C(=O)CCc1ccccc1
0.5,CC1(Cc2ccc(F)c(Cl)c2)C(=O)Nc2c(Cl)cccc21 (stereo unspecified)
1.4,O=C1Nc2ccccc2C(=O)N2c3ccccc3NC(=O)C12 (stereo unspecified)
2.0,CC(C)NC(=O)Nc1nnc([C@@H]2C[C@H](O)[C@@H](CO)O2)s1
-1.6,COc1ccc(Nc2nc(C)c(C(C)=O)s2)cc1
1.8,COCCCn1cc(CN2CC(N3CCN(C4CCN(C)CC4)CC3)CS2(=O)=O)nn1 (stereo unspecified)
0.0,COc1ccc(-c2ccc(C(=O)Nc3ccc4c(c3)OCO4)c3occc23)c(C)c1
-0.7,CC(C)c1ccc(NC(=O)C2Cc3c(-c4cccc(C(N)=O)c4)ccnc3O2)cc1 (stereo unspecified)
2.1,CC(=O)OCC(C)n1[nH]c2ccccc2c1=O (stereo unspecified)
0.2,CCOC(=O)[C@]12CCCC=C1N(CCC1=CCCCC1)C(=O)[C@H](CC(=O)N1CCSCC1)C2
6.4,O=C(NCc1ccc(F)cc1)Nc1nnc([C@@H]2C[C@H](O)[C@@H](CO)O2)s1
-2.3,COc1ccccc1-c1cnc(C(O)c2cc(C)ccc2C)[nH]1 (stereo unspecified)
-2.7,O=C(Nc1ccn(CCCNCc2cccc3ccccc23)c(=O)n1)OCc1ccccc1
3.1,CC(C)CC(N)c1csc(NC(=O)Nc2ccccc2-c2ccccc2)n1 (stereo unspecified)
3.8,COc1cc(CN2C[C@@H](CO)O[C@@H](n3cnc4c(N(C)C(C)C)ncnc43)C2)cc(OC)c1OC
0.8,CC(=O)NC(c1cccc(F)c1)c1nc(-c2ccc3ccccc3c2)cs1 (stereo unspecified)
2.5,CC1(C(=O)NS(=O)(=O)c2ccc(Cl)cc2)CCN1C(=O)Cc1ccccc1Cl (stereo unspecified)
0.0,CC1(C(=O)Nc2ccc(F)c(Cl)c2)Cc2c(-c3ccc(C(N)=O)cc3)ccnc2O1 (stereo unspecified)
3.3,O=C1CCN(Cl)C(=O)N1Cl
-3.9,Cc1ccc(-c2noc(CCC(=O)Nc3cccc(C(=O)NC4CC4)c3)n2)cc1
0.4,COCCNC(=O)C1(C)CCCN(Cc2ccc(Oc3ccccc3)cc2)C1 (stereo unspecified)
2.0,Cc1ccc(-c2nc3ccccc3n2C(C)C(=O)NC(C)(C)C)cc1 (stereo unspecified)
1.3,CN(C)c1ccc(CNC(=O)/C=C/[C@H]2O[C@@H](n3ccc(=O)[nH]c3=O)[C@H](O)[C@@H]2O)cc1
-2.8,CC1(C(=O)NS(=O)(=O)Cc2cccc(Cl)c2)CCN1C(=O)C1(c2ccc(Cl)cc2)CCC1 (stereo unspecified)
4.9,COc1ccc(C(NC(=O)C2CCN(CCOc3ccc(Cl)cc3)CC2)c2cccs2)cc1 (stereo unspecified)
-1.2,O=S1(=O)CC(N2CC=CC2)CN1Cc1cn(Cc2ccc(Cl)cc2)nn1 (stereo unspecified)
1.6,CC(C)NC(=O)C1(C)CCN1Cc1ccc(-c2ccccc2)cc1 (stereo unspecified)
3.2,Cc1cccc(S(=O)(=O)NC(=O)C2(C)CCN2C(=O)Cc2cc(F)ccc2F)c1 (stereo unspecified)
0.0,CSCCC(C(=O)NC1CCCC1)n1c(C2CCCC2)nc2ccccc21 (stereo unspecified)
1.3,COC1=CC(=O)OC(c2ccc(C(F)(F)F)cc2)C1 (stereo unspecified)
-3.1,O=C(NCc1ccccc1Cl)c1ccc2nc([C@@H]3O[C@H](CO)[C@H](O)[C@H](O)[C@H]3O)[nH]c2c1

Filtered by structure: those above containing a cyano group.
HNF4A DNA FP,mol
-2.8,CC(C)(C(=O)N1CCC1(C)C(=O)NS(=O)(=O)c1ccc(C#N)cc1)c1ccccc1 (stereo unspecified)
-1.9,CC1(C(=O)Nc2cccc(C#N)c2)CCN1C(=O)c1ccccc1CCc1ccccc1 (stereo unspecified)
6.3,Cc1cc2nc(-c3ccc(C#N)cc3)c(Cc3cccc(F)c3)n2c(C)c1Br
2.7,CC1(C(=O)NS(=O)(=O)c2ccc(C#N)cc2)CCN1C(=O)c1cccc2ccccc12 (stereo unspecified)

Among those listed so far, 3 contain bromine.
HNF4A DNA FP,mol
-3.8,COc1ccc(Cc2c(C3CCCCC3)nc3c(C)cc(Br)cn23)c(C)c1
1.1,Cc1cc(Br)ccc1NC(=O)CCCOc1cc(=O)n(C)c2ccccc12
6.3,Cc1cc2nc(-c3ccc(C#N)cc3)c(Cc3cccc(F)c3)n2c(C)c1Br

Going on with the list:
HNF4A DNA FP,mol
-2.9,COc1ccccc1-c1cccc(-c2nc(C(=O)Nc3nccs3)cc3c2[C@H](CCO)N(C(C)=O)C3)c1
-2.7,O=C(NC1CCCCC1)C(c1cccc2ccccc12)n1c(=O)c(-c2cc3ccccc3[nH]2)nc2ccccc21 (stereo unspecified)
10,COc1cccc(C(O)c2nc(-c3ccncc3)cs2)c1 (stereo unspecified)
2.3,O=C(NC1CCCC1)C(c1ccccc1)n1c(-c2cccc3ccccc23)nc2ccccc21 (stereo unspecified)
-3.2,O=C(OCc1cn([C@H]2C[C@H](c3ccc(Cl)cc3)N(C(=O)c3cccs3)C[C@@H]2O)nn1)c1ccccc1

Source: PubChem BioAssay

Only part of the results is shown. The share of hits here may be higher or lower than overall.
